# Six1-Eya2 inh: blocks human Six1 binding to Eya2; AlphaScreen GST-Six1/His-Eya2 binding, biochemical; active compounds read low; control for the full effect not named in the record; AID 651725; activity change, % (concentration not given with the values); hit rate 0.56% among 360,000; Q15475+O00167; in the data active = activity change below about -65%; inconclusive = about -30% to -65%; inactive = above about -30%; further: on the % scale 0 is the no-effect control and ±100 the full control effect
#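 AlphaScreen with GST-Six1 and His-Eya2 (5X mix: 250 nM and 500 nM), glutathione donor and nickel acceptor beads; buffer 50 mM Tris pH 8.0, 300 mM NaCl, 1 mM TCEP; 1 h at 37 C in the dark.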
# TRPML1 agonist: agonists of human TRPML1 channel | activation, % (no concentration beside the values) | Q9GZU1 | TRPML1-expressing cells, Ca2+ dye fluorescence, FDSS; host cell line not named in the record; reference of the full effect not given here | hit rate 0.12% among 410,000; in the data active = activation above about 50%; inconclusive = about 30% to 50%; inactive = below about 30%; further: 0% is about no effect; the text of the record puts the active cut at 80%
# Target sequence (Q9GZU1 whole entry, looked up): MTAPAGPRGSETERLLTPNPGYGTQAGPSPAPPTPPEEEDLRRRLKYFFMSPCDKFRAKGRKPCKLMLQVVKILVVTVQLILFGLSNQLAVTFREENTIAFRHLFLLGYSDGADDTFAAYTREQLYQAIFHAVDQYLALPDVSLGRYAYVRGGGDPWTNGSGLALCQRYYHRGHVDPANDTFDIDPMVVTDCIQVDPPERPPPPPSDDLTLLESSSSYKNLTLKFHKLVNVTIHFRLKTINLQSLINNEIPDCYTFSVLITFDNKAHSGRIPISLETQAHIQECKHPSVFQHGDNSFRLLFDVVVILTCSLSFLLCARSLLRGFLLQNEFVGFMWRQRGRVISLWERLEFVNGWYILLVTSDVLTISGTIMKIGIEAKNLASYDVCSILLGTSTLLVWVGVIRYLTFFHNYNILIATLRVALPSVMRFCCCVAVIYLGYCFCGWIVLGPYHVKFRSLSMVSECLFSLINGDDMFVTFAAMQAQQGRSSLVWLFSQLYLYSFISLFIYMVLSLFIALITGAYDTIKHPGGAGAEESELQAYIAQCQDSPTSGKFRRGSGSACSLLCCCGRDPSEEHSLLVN
#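 TRPML1-DL cells, Tet-induced overnight (~16 h, 37 degrees C), loaded 45-90 min at room temperature with Ca8 no-wash calcium dye plus quencher. FDSS fluorescence: 10 s baseline, compound pin-transfer, 110 s agonist read, then EC80 54-4 (4uM final) and 110 s antagonist read.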
# TRPV1 potentiator: human TRPV1 potentiation. Q8NER1. TRPV1-expressing cells, Fluo-8 calcium influx, capsaicin EC20 potentiation; host cell line not named in the record; control for the full effect not named in the record. potentiation, % at 8.33 µM. hit rate 0.02% among 320,000. AID 540277; active means potentiation above 80%; inconclusive means 30% to 80%; inactive means below 30%; further: 0% is about no effect
#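 Cells expressing TRPV1 were dye-loaded with Fluo-8 and read kinetically: 10 s baseline, 3 min after compound (agonist portion), then 2 min after EC20 capsaicin (allosteric enhancer portion). Calcium-bound dye fluorescence at 480/520 nm.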
# CtBP-E1A blk: blocks the CtBP interaction with E1A; activity change, % (test concentration not listed); AlphaScreen GST-E1A/His-CtBP binding, 1536-well; active compounds read low; control for the full effect not named in the record; hit rate 0.49% among 340,000; in the data active means activity change below about -65%; inconclusive means about -30% to -65%; inactive means above about -30%; further: on the % scale 0 is the no-effect control and ±100 the full control effect
#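 Homogeneous bead-based format: GST-tagged E1A captured on glutathione donor beads, His-tagged CtBP on nickel acceptor beads; compounds precede bead addition by 2 h at 37 °C.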
# TRPML1 inh: human mucolipin-1 channel inhibition; Q9GZU1; TRPML1-inducible cells, Ca2+ dye fluorescence, FDSS; active compounds read low; inhibition of EC80 agonist-evoked calcium signal; activity change, negative = inhibition, % (concentration not given with the values); hit rate 0.02% among 390,000; in the data active means activity change below about -50%; inconclusive means about -30% to -50%; inactive means above about -30%;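 further: stimulus is agonist 54-4 at its EC80 concentration; on the % scale 0 is the no-effect control and ±100 the full control effect; the text of the record puts the active cut at -80%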
#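 TRPML1-DL cells, Tet-induced overnight (~16 h, 37 °C) at 1,500 cells/well, were loaded with Ca8 no-wash dye plus quencher for 45-90 min at room temperature. Compounds were pinned during FDSS kinetic reading; agonist 54-4 at EC80 (4 uM final) then added.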
# D2 potentiator: human D2 receptor positive allosteric modulation; potentiation, % (no concentration beside the values); hit rate 0.23% among 360,000; P14416; DiscoveRx D2 beta-arrestin cells, luminescence, 90 min; 100% = 57 uM dopamine signal; active = potentiation of 50% or more; inconclusive = 30% to 50%; inactive = 30% or less;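 further: compound concentration not given in the record; tested on top of an EC20 dose of dopamine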
# Target sequence (P14416 whole entry, looked up): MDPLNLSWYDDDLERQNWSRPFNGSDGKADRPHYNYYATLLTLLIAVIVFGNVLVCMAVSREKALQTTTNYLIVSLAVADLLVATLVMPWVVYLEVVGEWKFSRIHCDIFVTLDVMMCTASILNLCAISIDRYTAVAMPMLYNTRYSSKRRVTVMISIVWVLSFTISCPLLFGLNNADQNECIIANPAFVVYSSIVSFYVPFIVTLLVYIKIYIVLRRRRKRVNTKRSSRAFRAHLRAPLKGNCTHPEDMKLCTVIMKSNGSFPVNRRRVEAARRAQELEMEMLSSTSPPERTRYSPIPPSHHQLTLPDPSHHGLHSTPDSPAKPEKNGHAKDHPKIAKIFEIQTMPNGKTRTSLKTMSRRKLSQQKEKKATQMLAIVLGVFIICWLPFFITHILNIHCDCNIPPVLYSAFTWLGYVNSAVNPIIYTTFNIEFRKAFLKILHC
#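 PathHunter beta-arrestin assay in DiscoveRx D2 cells. Compounds were added with an EC20 of dopamine (50 nM final) for 90 min at 37 deg C. Luminescence was read 1 h after detection reagent, with 57 uM dopamine as the EC100 control.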
# Starred values were filed as active, the others as inactive; u = inconclusive; x = not tested or not shown; & = joins results of further samples.
Structure	Six1-Eya2 inh	TRPML1 agonist	TRPV1 potentiator	CtBP-E1A blk	TRPML1 inh	D2 potentiator
CC(C)S(=O)(=O)N1CCCC(c2cc(C(=O)NCc3ccccc3)no2)C1 (stereo unspecified)	0	-0.7	x	3	x	-1
O=C(O)C1=CCCN(CCON=C(c2ccccc2)c2ccccc2)C1	0	0.1	13	0	-5	-19
O=C(O)C1CC(c2ccc(F)cc2)=NO1 (stereo unspecified)	23	-0.4	2	25	-6	-14
Cn1c(NC(=O)c2ccc(Br)o2)cc(=O)n(C)c1=O	-2	-0.1	-5	-1	11	-7
CCCCc1ccc(NC(=S)NCc2cccs2)cc1	-8	0.9	-10	4	-9	2
COc1ccc(N2C(=O)CC(NCCNc3ccc([N+](=O)[O-])cn3)C2=O)cc1 (stereo unspecified)	2	0.6	18	-12	-23	-17
COc1ccccc1CNS(=O)(=O)c1ccc(-n2cnnn2)c(OC)c1	3	1.3	-1	0	9	0
CCN(CC)CCC(c1ccc(N(C)C)cc1)c1c(O)cc(OC)cc1OC (stereo unspecified)	u	0.6&-0.7	-7	u	-15&6	-22
CCN(CC)CCNC(=O)c1ccc(NC(=O)Nc2cccc3ccccc23)cc1	-1	-0.8	-15	16	8	-16
O=C(c1ccc(S(=O)(=O)Nc2ccccc2Cl)cc1)N1CCCC1	-1	1.6	x	2	4	-1
CN(c1ccccc1)S(=O)(=O)c1ccc(C(=O)NCc2cccs2)cc1	18	x	-20	7	x	-6
CCCCCc1c(Cc2ccccc2)ncn1CCc1ccccc1OC	7	-0.6	x	-16	x	x

# The results go on:
Structure	Six1-Eya2 inh	TRPML1 agonist	TRPV1 potentiator	CtBP-E1A blk	TRPML1 inh	D2 potentiator
CC(C)N(C(=O)C(=O)c1cccn1-c1ccccc1C#N)C(C)C	5	0.3	-6	-2	14	-12
O=C(O)C1C2CC2CN1C(=O)c1ccc(Cl)cc1 (stereo unspecified)	-2	-0.3	-5	0	18	-1
O=C(NC1CCCCCC1)C(=S)NC1CCCCC1	6	-0.6	-22	13	-30	0
Cc1noc(C)c1C(=O)Nc1ccc(F)c(F)c1	5	-0.3	7	9	-10	-3
Cc1oc(/N=C/c2ccc(F)cc2)c(C#N)c1C	2	0.5	-2	x	7	2
CCOC(=O)C(C)n1nc(/C=C/c2ccccc2)ccc1=O (stereo unspecified)	7	0.6	1	9	-14	-3
Cc1ccc(CN2CCNC(=O)C2CC(=O)N(C)CCc2cnn(C)c2)cc1 (stereo unspecified)	3	0.6	4	2	-6	16
O=c1cc(CSc2nnnn2-c2ccccc2)nc2sccn12	-1	0.1	11	-1	-12	-12
O=C(NC(=S)NC1CCCC1)c1ccccc1Br	9	2.6	1	-4	17	-11
Cc1cc(C(=O)N2CCN(c3ccc([N+](=O)[O-])cc3)CC2)no1	1	0.3	-21	-7	-7	-14
COC(=O)c1ccc(NC(=O)Nc2ccc3c(c2)OCO3)cc1	-11	-0.6	-6	-7	13	2
O=C(Nc1cccc(C(=O)N2CCCC2)c1)C1CCCCC1	0	-0.3	x	4	-3	x

# Further entries follow.
Structure	Six1-Eya2 inh	TRPML1 agonist	TRPV1 potentiator	CtBP-E1A blk	TRPML1 inh	D2 potentiator
N#Cc1c(-c2ccccc2)nc(SCC(=O)N(c2ccccc2)c2ccccc2)[nH]c1=O	-16	3.4	25	-8	27	-3
CC1(C)OC(=O)C=C(CC2NS(=O)(=O)OC3CCCCC23)O1 (stereo unspecified)	1	-0.5	-9	-10	38	-1
O=C(O)CCCCCN1C(=O)c2ccc(C(=O)O)cc2C1=O	5	0.0	-10	10	-1	-3
C/C=C/C(=O)OCC(=O)Nc1cccc(F)c1	2	-0.2	28	10	39	-5
CC(=O)C1C(c2ccccc2)c2c(noc2C)CC1(C)O (stereo unspecified)	3	0.7	-17	-9	-7	-7
CN(c1ccccc1)S(=O)(=O)c1ccc(Cl)c(C(=O)Nc2ccc(-c3nc4ccccc4[nH]3)cc2)c1	u	0.1	-7	-4	0	14
COc1cccc(C2CC(c3ccc(Cl)cc3Cl)n3nc(N)nc3N2)c1 (stereo unspecified)	-18	3.2	x	-19	-21	-4
COc1ccc(CCN(C)C/C=C/c2ccccc2[N+](=O)[O-])cc1OC	-11	0.6	1	-13	12	-22
COc1cc2[nH]c(=O)n(CCC(=O)NCCCN3CCN(c4ccccc4F)CC3)c(=O)c2cc1OC	-9	-0.8	-9	-6	24	-17
O=C(Nc1cccc(F)c1)Nc1ccc2c(c1)OCO2	-10	0.8	-13	-16	30	1
Cc1ccc(NC(=O)O/N=C2\CCCCC2c2ccc([N+](=O)[O-])cc2[N+](=O)[O-])cc1 (stereo unspecified)	-14	-0.5	1	-16	-3	u
Cc1ccc(NC(=O)Cn2c(O)c(N=NC(=O)c3ccncc3)c3ccccc32)cc1	0	-0.4	0	4	28	-6

# Next section
Structure	Six1-Eya2 inh	TRPML1 agonist	TRPV1 potentiator	CtBP-E1A blk	TRPML1 inh	D2 potentiator
O=C(NN1CCOCC1)c1ccc(S(=O)(=O)N2CCCCC2)cc1	-2	0.9	11	-1	-15	-5
O=C(NNC(=O)c1ccccc1Br)c1ccc(SCC2CCCO2)c([N+](=O)[O-])c1 (stereo unspecified)	-1	0.7	-5	-4	2	-11
CC(=O)Nc1ccc(S(=O)(=O)Nc2cccc(-c3nc4cc(C)ccc4o3)c2)cc1	4	-0.5	x	x	14	-14
CCCNC(=O)c1cc(-c2ccc(OC)cc2)on1	-3	0.0	9	2	-9	-5
COc1ccc(/C=N/c2c(-c3ccc(OC)cc3)nc3n2CCS3)cc1	-27	4.1	0	-15	-12	29
Nc1nonc1-n1nnc(C(=O)N/N=C/c2ccco2)c1CSc1ccc(Cl)cc1	6	-0.3	x	-2	-10	-8
Cc1cccc(-n2c(-c3csc(C(C)C)c3)n[nH]c2=S)c1	-1	0.7	7	-1	54	-19
Cc1ccc(NC(=O)COC(=O)c2ccn(C)n2)cc1	-6	1.0	-13	-10	-9	-29
Cc1cc(C)c(N(C(=O)CN2C(=O)c3ccccc3S2(=O)=O)C(C(=O)NCC2CCCO2)c2ccc(F)cc2)c(C)c1 (stereo unspecified)	-6	0.8	9	1	-13	0
Cc1ccc(-c2nc3ccccc3[nH]2)s1	-7	-0.6	3	-7	-2	-7
O=C(Nc1ccc2c(c1)OCO2)C1CCCN1C(=O)Nc1cccc(F)c1 (stereo unspecified)	-12	0.6	13	-4	-13	-9
Clc1ccccc1OCc1nc(-c2ccncc2)no1	2	-0.5	-4	5	1	-7

# Going on with the list.
Structure	Six1-Eya2 inh	TRPML1 agonist	TRPV1 potentiator	CtBP-E1A blk	TRPML1 inh	D2 potentiator
O=C(NC1CCCC1)C(c1ccncc1)N(Cc1cccs1)C(=O)c1csnn1 (stereo unspecified)	1	-0.9	7	0	9	-12
CC1CCN(CCCn2c(=S)[nH]c3ccccc3c2=O)CC1	-3	-0.7	1	-1	8	-42
Cc1ccc2c(CN3CCCCC3CCO)cc(=O)oc2c1 (stereo unspecified)	8	x	-6	8	x	-2
O=C(c1cccs1)N1CCC(c2nc3c(nnn3Cc3cccc(Cl)c3)c(=O)[nH]2)CC1	-68*	-1.2	-8	-1	-8	-3
Cc1cc(C)c(NC(N)=S)c(C)c1	11	-0.1	-3	-3	-8	-4
N#Cc1sc(NCc2ccccc2)nc1Cl	14	2.7	0	22	-9	-6
COc1ccc(NC(=O)CN(C)S(=O)(=O)c2ccc3c(c2)OCCO3)c2ncccc12	1	1.8	-21	3	17	-11
O=C(NC1CCCCCC1)c1cc2ccccc2oc1=O	6	0.8	15	5	-1	-3
Cc1ccc(C(NC(=O)NCCCN2CCOCC2)=C(Cl)Cl)cc1F	0	-0.6	-12	4	0	-24
Cc1cc(C)cc(NC(=O)Cn2nnc(C(=O)NCc3ccco3)c2N)c1	-7	-1.2&-0.9	-1	-1	14&11	-12
Cc1onc(-c2c(F)cccc2Cl)c1C(=O)Nc1ccc(S(=O)(=O)Nc2ncccn2)cc1	6	-0.8	2	4	2	-14
CCCCCCCCNCCS(=O)(=O)NN1CCOCC1	3	-0.7	x	-25	-1	x

# Another view of 11 compounds above:
# Values in the order: Six1-Eya2 inh, TRPML1 agonist, TRPV1 potentiator, CtBP-E1A blk, TRPML1 inh, D2 potentiator
CC1CCN(CCCn2c(=S)[nH]c3ccccc3c2=O)CC1
    -3, -0.7, 1, -1, 8, -42
Cc1ccc2c(CN3CCCCC3CCO)cc(=O)oc2c1 (stereo unspecified)
    8, x, -6, 8, x, -2
O=C(c1cccs1)N1CCC(c2nc3c(nnn3Cc3cccc(Cl)c3)c(=O)[nH]2)CC1
    -68*, -1.2, -8, -1, -8, -3
Cc1cc(C)c(NC(N)=S)c(C)c1
    11, -0.1, -3, -3, -8, -4
N#Cc1sc(NCc2ccccc2)nc1Cl
    14, 2.7, 0, 22, -9, -6
COc1ccc(NC(=O)CN(C)S(=O)(=O)c2ccc3c(c2)OCCO3)c2ncccc12
    1, 1.8, -21, 3, 17, -11
O=C(NC1CCCCCC1)c1cc2ccccc2oc1=O
    6, 0.8, 15, 5, -1, -3
Cc1ccc(C(NC(=O)NCCCN2CCOCC2)=C(Cl)Cl)cc1F
    0, -0.6, -12, 4, 0, -24
Cc1cc(C)cc(NC(=O)Cn2nnc(C(=O)NCc3ccco3)c2N)c1
    -7, -1.2&-0.9, -1, -1, 14&11, -12
Cc1onc(-c2c(F)cccc2Cl)c1C(=O)Nc1ccc(S(=O)(=O)Nc2ncccn2)cc1
    6, -0.8, 2, 4, 2, -14
CCCCCCCCNCCS(=O)(=O)NN1CCOCC1
    3, -0.7, x, -25, -1, x

# The listing continues.
Structure	Six1-Eya2 inh	TRPML1 agonist	TRPV1 potentiator	CtBP-E1A blk	TRPML1 inh	D2 potentiator
Cc1nnc(N)s1	-10	0.3	-38	-8	13	-23
O=C(CC1(CC(=O)N2CCOCC2)CCCC1)Nc1ccc(F)cc1	9	-0.2	x	1	-4	-4
O=C(Cn1cnc2c(oc3ccccc32)c1=O)NCc1ccccc1	7	-0.2	u	2	14	-5
CCOC(=O)c1c(C)[nH]c(C(=O)N2CCc3cc(OC)c(OC)cc3C2)c1C	-10	-0.2	-5	-3	-9	0
CCSc1nc(O)c(Cc2ccccc2)c(=O)[nH]1	8	0.3	2	1	-4	0
CCOC(=O)N1CCN(C(=O)CCS(=O)(=O)c2ccc3c(c2)CC(C)N3C(=O)CC)CC1 (stereo unspecified)	18	-1.0	-2	x	-10	-5
CCN(c1ccc(NC(=O)CSc2ccc3c(c2)OCCO3)cc1)C(C)C	u	3.4	x	-4	-2	-34
O=C(Nc1ccccc1-c1nc2ccccc2s1)c1ccco1	20	5.2	5	18	29	-21
COc1ccc([C@H]2/C=C\CN(C(=O)c3ccccc3)[C@@H](C)C(=O)N2Cc2ccc(F)cc2)cc1	0	-0.1	x	1	6	-9
CC(=O)c1c(C)n(CCc2ccc(Cl)cc2)c2ccc(O)cc12	1	0.2	4	4	-20	-2
COc1cccc(C2=NOC(C(=O)NCC3CCCO3)C2)c1 (stereo unspecified)	5	0.3	-3	21	-7	-9
CC1(C(=O)NCc2ccc(Cl)c(Cl)c2)Oc2cccnc2NC1=O (stereo unspecified)	11	6.5	-7	21	17	-6

# The order is random. Share with any hit: about 0.95%.
